Source: PubChem (National Center for Advancing Translational Sciences (NCATS))
NPR1 antag – Natriuretic polypeptide receptor (hNpr1) antagonism - Primary qHTS; Atrial natriuretic peptide receptor 1 (Homo sapiens), P16066; Potency, µM (highest dose often 46.3 µM), inactives show top-dose activity change, negative = inhibition, usual class: inhibitors; hit rate 1.6% among 76,000; HEK293 hNpr1 GloSensor cGMP, ANP-stimulated luminescence; AID 1347048, 2019; active = well fitted inhibition curve with a large enough effect; inconclusive = small, poorly fitted or top-dose-only effect; inactive = no such curve, though single readings can be large or run the other way;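 note: nearly all actives have a fitted effect of over 60% in size; nearly all hits also lower the signal before the agonist is added; a reference antagonist and vehicle were the controls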
Target sequence (P16066 whole entry, looked up): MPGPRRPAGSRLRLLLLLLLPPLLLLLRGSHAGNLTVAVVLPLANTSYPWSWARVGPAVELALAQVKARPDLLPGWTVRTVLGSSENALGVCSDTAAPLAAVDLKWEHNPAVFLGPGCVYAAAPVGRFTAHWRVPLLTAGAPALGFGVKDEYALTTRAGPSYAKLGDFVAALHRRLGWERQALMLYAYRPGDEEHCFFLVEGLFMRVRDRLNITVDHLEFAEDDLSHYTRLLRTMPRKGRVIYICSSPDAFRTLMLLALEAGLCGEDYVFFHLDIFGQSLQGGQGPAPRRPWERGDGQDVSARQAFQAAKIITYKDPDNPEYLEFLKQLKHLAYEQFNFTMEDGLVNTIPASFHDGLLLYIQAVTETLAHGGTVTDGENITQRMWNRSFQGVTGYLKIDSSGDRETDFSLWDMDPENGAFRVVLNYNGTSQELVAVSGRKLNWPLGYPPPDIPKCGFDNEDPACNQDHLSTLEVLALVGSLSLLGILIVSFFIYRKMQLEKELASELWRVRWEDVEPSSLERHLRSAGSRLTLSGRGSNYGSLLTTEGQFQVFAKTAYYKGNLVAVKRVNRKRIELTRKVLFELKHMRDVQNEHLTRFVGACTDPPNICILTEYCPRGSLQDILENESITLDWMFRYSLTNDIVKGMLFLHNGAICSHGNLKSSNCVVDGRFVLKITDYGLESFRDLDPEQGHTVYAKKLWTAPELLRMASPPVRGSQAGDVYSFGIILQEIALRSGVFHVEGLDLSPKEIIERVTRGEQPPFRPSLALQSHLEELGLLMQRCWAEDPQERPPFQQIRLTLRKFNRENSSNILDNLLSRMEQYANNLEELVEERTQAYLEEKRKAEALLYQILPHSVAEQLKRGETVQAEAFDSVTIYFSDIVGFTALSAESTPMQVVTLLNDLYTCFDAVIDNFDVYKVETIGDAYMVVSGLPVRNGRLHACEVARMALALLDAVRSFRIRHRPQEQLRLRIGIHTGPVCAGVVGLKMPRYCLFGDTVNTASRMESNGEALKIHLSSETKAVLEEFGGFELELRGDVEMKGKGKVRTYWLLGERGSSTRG
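Compound pre-incubated 30 min at room temperature on GloSensor-loaded HEK293 cells stably carrying hNpr1 and the pGS-40F cGMP biosensor. Stimulation uses hNppA at 0.1 nM final; luminescence is taken at baseline and 20 min post-agonist.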
Active calls of the source: *; ? = inconclusive; [ ] = remark or other dose. % is set by controls: 0 for no effect and ±100 for the full control effect; potency is the fitted concentration of half-maximal effect.

Sample of the layout (3 entries):
SMILES	NPR1 antag
COc1ccccc1-n1nc(CC(N)=O)nc1C1CCCCn2nnnc21 (centres undefined)	1%
O=C(NCCn1c(=O)c(=O)[nH]c2ccccc21)C1CC(=O)N(c2n[nH]c3ccccc23)C1 (centres undefined)	-6%
COc1ccc(CN2CCOC[C@H](OCC(=O)N(C)C)C2)cc1	0%[70.6 µM]

All compounds of this part, previewed entries included:
SMILES	NPR1 antag
COc1ccccc1-n1nc(CC(N)=O)nc1C1CCCCn2nnnc21 (centres undefined)	1%
O=C(NCCn1c(=O)c(=O)[nH]c2ccccc21)C1CC(=O)N(c2n[nH]c3ccccc23)C1 (centres undefined)	-6%
COc1ccc(CN2CCOC[C@H](OCC(=O)N(C)C)C2)cc1	0%[70.6 µM]
COc1ccc(CNC(=O)N2CCC3(CC2)CC(OC)CCO3)cc1 (centres undefined)	4%
CN(Cc1ccc(-c2ccccc2)cc1)C(=O)c1ccc(Cl)nc1	?
Cc1cc(C(=O)Nc2ccc(C(O)[C@H]3COCC(=O)N3Cc3ccc(C(F)(F)F)cc3)cc2)n(C)n1 (some centres undefined)	-4%
CC1CCN(C(=O)c2cc3c(s2)CCC(C(=O)O)C3)CC1 (centres undefined)	0%
COc1ccc(CC(=O)N2CC[C@H]3CC(=O)N(Cc4ccccc4)CC[C@H]3C2)cc1	0%[70.6 µM]
O=C1NCCCCCCN(C(=O)Nc2ccccc2)[C@H]2C[C@H](c3nc(-c4cccnc4)no3)C[C@@H]12	4%
c1ccc(Oc2nccn3c(-c4ccc(CNCc5ccn[nH]5)cc4)cnc23)cc1	-3%[70.6 µM]
O=C(N[C@@H]1CNCCC[C@H]1O)c1ccc(OCCN2CCCC2)cc1	9%[70.6 µM]
COc1ccc(Cn2c3c(c(=O)n2Cc2ccccc2)CCN(C(=O)CCc2cccnc2)C3)cc1	4%
O=C(CCCc1ccccc1)N1CCCCCC1c1nc(C2CC2)no1 (centres undefined)	-8%
Cc1cc(C)n(Cc2cccc(C(=O)N3Cc4ccccc4C(O)C3)c2)n1 (centres undefined)	-12%
CN1CCN(C(=O)CC[C@@H]2CNC(=O)[C@@H]3C[C@H](NC(=O)Nc4ccccc4)CN23)CC1	-5%[70.6 µM]
Cc1cc(=O)n(CC(=O)Nc2cccc(C(F)(F)F)c2)c(N2CCC(C)CC2)n1	10µM*
Cc1cccc(NC(=O)Cn2ccn3nc(-c4ccccc4)c(CO)c3c2=O)c1	0%
O=C1CCCN1CCCN1C(=O)[C@H]2CNC[C@H]2C1=O	0%
CC(C)(C)c1ccc(-c2cc(C[C@H]3CNCC[C@H]3CC(=O)N3CCCCC3)no2)cc1	4%[70.6 µM]
N#Cc1ccc(C(=O)N2CCN(c3cc(-c4ccc(Cl)cc4)[nH]n3)CC2)cc1	6.3µM*
CCn1c(=O)c2c(cc(C)n2C)n(CC(=O)Nc2cc(OC)cc(OC)c2)c1=O	-3%
CN1c2cc(C(=O)N3CCN(c4ccc(Cl)cc4)CC3)ccc2C(=O)N2CCCCC21 (centres undefined)	?
CN1[C@@H](CCC(=O)NCc2ccc(F)cc2)CNC(=O)[C@@H]2[C@H]1CCN2Cc1cccc(Cl)c1	0%
COC(=O)[C@@H]1C[C@H](NC(=O)CCCc2cccs2)CN1C	1%
CCN1CCC2(CCC1=O)CN(c1ncnc3c1CCC3)CCN2C (centres undefined)	1%
COc1ccc(-c2nc(C3CC(=O)N(c4ccc(C)cc4)C3)no2)c(OC)c1 (centres undefined)	-23%
CCn1ncnc1C(C)NC(=O)Cn1nc(-c2ccccc2)n(CC)c1=O (centres undefined)	-4%
COCCNC(=O)[C@@H]1C[C@H](Oc2ccccc2)CN1C(=O)C1CCC1	6%
CC(=O)c1ccc(NC(=O)O[C@@H]2CO[C@H]3[C@@H]2OC[C@@H]3n2nnnc2-c2ccc(-c3ccccc3)cc2)cc1	1%
Cc1nn(Cc2ccccc2)c(C)c1[C@@H]1C=C[C@@H](NS(=O)(=O)c2cccs2)C1	?
COc1ccc(-c2cnc3[nH]cc(CC(=O)N4CCOCC4)c3c2)cn1	-27%[70.6 µM]
O=C(Nc1cccc(C(F)(F)F)c1)O[C@@H]1CO[C@H]2[C@@H]1OC[C@@H]2n1nnnc1SC1CCCC1	?
COc1ccc(C(C(=O)O)N2CCN(Cc3csc(C)n3)CC2)c(C)c1 (centres undefined)	0%
O=C(NCCC1CCN(C(=O)Nc2ccc(F)cc2)CC1)c1ccccn1	-1%
Cc1ncoc1C(=O)N1CCC2(CCCN(C3CCOCC3)C2=O)C1 (centres undefined)	1%
COc1ccc(-c2noc(-c3cccn3CC(=O)Nc3ccc(C)cc3C)n2)cc1F	2%
NCCc1n[nH]c(=O)n1-c1ccc(Cl)cc1	-3%
CCOc1ccc(CN2CCC(N(C(=O)CC)C3CCOCC3)CC2)cc1	1%
CCc1ccc(S(=O)(=O)N2CCCN(C)c3ccccc32)cc1	-12%
CN(C)Cc1nnc(C2CCN(Cc3cnc(-c4ccccn4)nc3)CC2)n1C	0%
CCCNC(=O)c1cccc2c1CCN2C(=O)Nc1ccc(OC)cc1	5µM*
O=C(CN1CCCc2nc(C3CC3)ncc2C1=O)N1CCc2ccccc2C1	2%
N#Cc1ccc(CN2C[C@@H](COCC(N)=O)[C@H](c3ccncc3)C2)cc1	-11%
Cc1nc(CCNC(=O)Cc2ccsc2)no1	1%
Cc1ccccc1-c1noc(CN2CCCC2=O)n1	-2%
c1ccc(-c2ccccc2Nc2cnc3ccc(-n4ccnc4)nn23)cc1	?
Cc1cc(=O)n(CC(=O)Nc2cc(Cl)ccc2C)c(-c2ccc(F)cc2)n1	-2%
COc1ccc(-c2cc(N3CCCC(NC(=O)c4cccs4)C3)n[nH]2)cc1 (centres undefined)	-18%
Cc1ccc(S(=O)(=O)N2C[C@@H](F)C[C@H]2C(=O)N2CCc3ccccc3C2)cc1F	-6%
CO[C@H]1[C@H](NC(=O)c2cc3ccccc3[nH]2)c2ccccc2C12CCNCC2	-2%
C[C@H]1CCCN1C(=O)c1nnc(COc2ccc(C#N)cc2)n1-c1ccccc1	-1%[70.6 µM]
Cc1noc(C)c1[S+](=O)([O-])N1CCC2(CC1)Cc1ccccc1NC2=O	-5%
O=S(=O)(c1ccccc1)N1CCCC(c2nnnn2-c2ccccc2)C1 (centres undefined)	-1%
CC(=O)c1c(C)nn(CC(=O)N2CCN3C(=O)CN(C)C(=O)C3C2)c1C (centres undefined)	1%
Cc1cc(C(=O)N2CCCC3(CCC(=O)N(Cc4cccnc4)C3)C2)n(C)n1 (centres undefined)	-5%
O=C(C1CCC1)N1CCCC(c2noc(COc3ccccc3)n2)C1 (centres undefined)	-5%
O=C(c1ccc2ccccc2n1)N1CCC2(CC1)CC(Cc1cccc(F)c1)CCO2 (centres undefined)	-7%
CC(=O)N1CC(CO)C2(CCN(C(=O)CC3CCCCC3)CC2)C1 (centres undefined)	-15%
CCOC(=O)C1=CN(CC(=O)Nc2ccccc2F)S(=O)(=O)N=C1C	5%
CN(Cc1ccc(F)cc1)Cc1ccc(N(C)C)cc1	-6%[70.6 µM]
(listing goes on)
SMILES	NPR1 antag
CCOc1ccc(C2Cn3nnc(-c4nc(C(C)(C)C)no4)c3CO2)cc1 (centres undefined)	-10%
Cc1cnc(CC2CCN(C(=O)CC3CCCC3)CC2)n1Cc1ccc(F)cc1	-1%
COc1ccc(S(=O)(=O)N2CCC(c3noc(-c4cnccn4)n3)C2)cc1 (centres undefined)	-2%
CCc1nc(-c2c3n(c(=O)n(Cc4ccc(F)cc4F)c2=O)CCCCC3)no1	-1%
CSCC(=O)N[C@H]1CCN2C(=O)c3cc(-c4ccccc4)ccc3NC(=O)[C@H]12	-15%[70.6 µM]
O=C(COc1ccc(F)cc1)N1CCC2(CCCCO2)CC1	-1%
CCNC(=O)c1coc(COc2ccc3c(c2)C(c2ccc(F)cc2)N(C(=O)CC(C)C)CC3)n1 (centres undefined)	-18%
O=c1n(Cc2ccccc2)nc2n1CCN(S(=O)(=O)Cc1ccccc1)CC2	5%
NC(=O)c1cc[nH]c1C1CCCN(S(=O)(=O)c2ccc3c(c2)OCCO3)C1 (centres undefined)	-2%
Cc1cccc(C2c3cc(OCc4nc(C(=O)NC(C)C)co4)ccc3CCN2C(=O)C2CC2)c1 (centres undefined)	-16%
OCC1CCCCN1CCNC1CCN(c2ccc3c(c2)OCO3)CC1 (centres undefined)	4%
CC(C)NC(=O)C(C)[C@@H]1CC[C@@]2(C)CC[C@H](NC(=O)c3cncnc3)[C@@H](C)[C@@H]2[C@H]1O (some centres undefined)	4%[70.6 µM]
C#CCN(C)Cc1nc(C2(O)CCN(C3CCC3)CC2)cs1	5%[70.6 µM]
COc1ccc(C(=O)N[C@H]2CO[C@H]3[C@@H]2OC[C@@H]3Nc2nccc(-c3ccccc3OC)n2)cc1	7%
Cc1ccc(C(=O)N2CCc3nc(C4CC4)nc(-c4ccc(Cl)cc4)c3CC2)cc1	6%
CC(C)C(=O)N1CC(n2cc(COc3ccc(F)cc3)nn2)C1	1%
Cc1ccc(CNC(=O)N2CCCC(n3c(C)cnc3C3CCOCC3)C2)cc1 (centres undefined)	6%
CC1(c2ccccc2)CCCN(c2cncc(C(=O)N3CCOCC3)n2)C1 (centres undefined)	-14%
CCN1CCC2(CCC1=O)CN(Cc1nc3c(cnn3C)c(=O)[nH]1)CCN2C (centres undefined)	8%
O=C(Nc1ccc(Oc2cccnc2)cc1)C1CCN(CCCc2ccccc2)CC1	-12%
COc1cccc(C(=O)N2CCC3(CC2)NC(=O)N(c2cccc(F)c2)N3)c1	7%
CCNC(=O)CCC[C@@H]1[C@H]2CCCN3CCC[C@@H](CN1C(C)=O)[C@@H]23	4%
CN[C@H](C(=O)N[C@H]1C[C@@](O)(C(=O)N[C@H](Cc2c[nH]c3ccccc23)C(N)=O)C[C@@H](O)[C@@H]1O)C(C)C	0%
Cc1ccc(CNC(=O)Cn2c(-c3ccc(F)cc3)nc(C)c(CCO)c2=O)cc1	-1%
CCN(CC)C(=O)C1CCCN(C(=O)CCC2(Cc3cccc4ccccc34)CCC(=O)N2)C1 (centres undefined)	-1%
Cn1ncc(N2CCCC(CC(=O)Nc3ccc(F)c(F)c3)C2)cc1=O (centres undefined)	1%
O=C(c1ccncc1)N1CCC2(CC1)N=C(c1ccc(Cl)cc1)NO2	-19%
COCCCNC(=O)C1COC2(CCCCC2)N1C(=O)c1c(OC)cccc1OC (centres undefined)	3%
COc1cccc(COC2CN(CCc3ccccc3)C(=O)CN(C(=O)CN3CCOC3=O)C2)c1 (centres undefined)	0%
Cc1ncccc1C(=O)N1CCCN(Cc2ccncc2)C(c2ccccc2)CC(=O)NCC1 (centres undefined)	1%
O=C(Cc1ccc2c(c1)OCO2)N1CCOCC2(CN(Cc3cc(F)cc(F)c3)C2)C1	4%[70.6 µM]
CCCC1(CO)CCCN(C(=O)CCn2ccc(=O)[nH]c2=O)C1 (centres undefined)	-7%
O=C1CC(c2ccccc2)N(Cc2ccncc2)CCCN(C(=O)CN2C(=O)CCC2=O)CCN1 (centres undefined)	-3%
Cc1nc(C)c(C(=O)N2CC(Oc3cccc(-c4nc(-c5ccccc5)no4)c3)C2)s1	-24%
CCO[C@H]1CN(C(=O)CCNC(=O)c2cccc(OC)c2)C[C@@H]1O	1%
CC(C)CNC(=O)C1c2ccccc2C(=O)N(Cc2ccco2)C12CCCC2 (centres undefined)	-17%
COc1cccc(CC(=O)NCc2nnc3c(-c4nc(C(C)C)no4)cccn23)c1	-2%
CCCCN(Cc1ccccc1)Cc1nc(-c2ccc(C(=O)OC)cc2)no1	-8%
Cc1ccc(OCC(=O)N2CCC(Cc3n[nH]c(C)n3)CC2)cc1	-3%
O=C([C@@H]1C[C@H](F)CN1S(=O)(=O)c1cccc(Cl)c1)N1CCc2ccccc2C1	1%
COCCOc1ccc2c(n1)CCN(C(=O)Nc1ccc(C)c(C)c1)C2	-21%
O=C(CCC1CCCC1)N1CCCC(c2nc(CCOCC3CCOCC3)no2)C1 (centres undefined)	?
COCCC(=O)N1CCC2(CCN(Cc3cccc(C)c3)CC2)C(CO)C1 (centres undefined)	1%
O=C(c1cccnc1N1CC2CC(C1)[C@H]1CCCC(=O)N1C2)N1CC=C(c2ccccc2)CC1 (some centres undefined)	-10%
Cn1cc(CNC(=O)C[C@@H]2C[C@H]3O[C@H](CNC4CCOCC4)[C@@H](O)[C@H]3O2)cn1	5%[70.6 µM]
O=C(c1ccc(F)cc1)N1CCc2nc(-c3ccccc3)nc(-c3ccc(Cl)cc3)c2C1	1%
O=C(C1CCOCC1)N1CCC(Oc2ccccc2-c2nc(-c3ccccc3)no2)C1 (centres undefined)	2%
CN(C)c1ncccc1CNC(=O)COc1ccccc1Cl	2%

In another format: 4 of the compounds above
> O=C(c1ccc(F)cc1)N1CCc2nc(-c3ccccc3)nc(-c3ccc(Cl)cc3)c2C1
  NPR1 antag = 1%

> O=C([C@@H]1C[C@H](F)CN1S(=O)(=O)c1cccc(Cl)c1)N1CCc2ccccc2C1
  NPR1 antag = 1%

> COc1cccc(CC(=O)NCc2nnc3c(-c4nc(C(C)C)no4)cccn23)c1
  NPR1 antag = -2%

> Cc1ccc(OCC(=O)N2CCC(Cc3n[nH]c(C)n3)CC2)cc1
  NPR1 antag = -3%

This is a subset; rates above refer to the full screens.
